E coli growth: E. coli growth inhibition, primary screen, OD600 | Escherichia coli growth, 23 h; hits give low values | OD600 absorbance (concentration not given with the values) | 330,000 tested, 0.21% active;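 active = OD600 absorbance below the run mean of sample wells minus 3.6 SD, in any replicate, cut at about 0.56 in these data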;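 also: stock transfer was 300 nL into about 60 µL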
Vif A3G: inhibitors of Vif binding to APOBEC3G peptide, primary screen, biochemical, TR-FRET, GST-Vif 1-94, biotin-A3G peptide, dose response retest (AID 1117319); Virion infectivity factor (Human immunodeficiency virus type 1 group M subtype B (isolate …; inhibition, %, or IC50 in µM where a hit was titrated; TR-FRET GST-Vif / biotin-A3G peptide binding; higher % means a stronger effect; test concentration not given here; strong numbers were not always called active; 260,000 tested, 0.57% active;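 active = above the screen mean plus three standard deviations and confirmed in dose response; inconclusive = results disagree or hit not tested in dose response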;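 also: Vif residues 1-94 fused to GST binding biotinylated APOBEC3G peptide 110-148; 0% = full assay without inhibitor and 100% = GST in place of GST-Vif; retest series ran down from 100 µM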
UCH37 inh: inhibitors of human UCH37 deubiquitinase, primary screen, biochemical, Ub-AMC cleavage, fluorescence. Ubiquitin carboxyl-terminal hydrolase isozyme L5 (Homo sapiens), Q9Y5K5. purified proteasome/UCH37. 330,000 tested, 0.33% active. inhibition, % (concentration not given with the values). AID 588478, 2011;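 active = mean of two replicates above 20%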;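 also: 0% = compound-free wells with enzyme and 100% = wells lacking proteasome; stock transfer was 100 nL into about 20 µL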
Target sequence (Q9Y5K5 whole entry, looked up): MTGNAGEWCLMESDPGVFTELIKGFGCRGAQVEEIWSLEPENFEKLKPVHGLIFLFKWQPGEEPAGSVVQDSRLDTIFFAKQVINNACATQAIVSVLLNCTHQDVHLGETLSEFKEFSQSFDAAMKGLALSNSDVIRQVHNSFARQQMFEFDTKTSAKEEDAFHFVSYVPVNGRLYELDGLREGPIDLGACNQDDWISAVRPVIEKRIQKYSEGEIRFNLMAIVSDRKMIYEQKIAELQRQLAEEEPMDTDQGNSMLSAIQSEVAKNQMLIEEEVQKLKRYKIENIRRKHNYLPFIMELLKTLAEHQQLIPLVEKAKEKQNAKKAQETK
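Material: human UCH37 enzyme supplied as purified proteasome complex / Amount: 0.15 nM proteasome as dispensed / Buffer or medium: pH 7.4 Tris-HCl (50 mM) with ovalbumin, ATP-MgCl2, DTT / Times: preincubation 30 min, reaction 25 min, room temperature / Technique: AMC fluorescence from Ub-AMC cleavage, excitation 355 nm, emission 460 nm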
FGF22 binding: binders of human FGF22 protein, primary screen, FGF22 synaptogenesis inhibitor project, biophysical, thermal shift, single point. Fibroblast growth factor 22 (Homo sapiens), Q9HCT0. recombinant FGF22 thermal shift, SYPRO orange fluorescence; percent of sucrose octasulfate shift, DMSO zero. calls only at 9.99 µM. 340,000 tested, 1.5% active. AID 651658, 2012;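 active = melting point raised past a set limit in the mean and every replicate; inconclusive = no clear call; three in four hits are not shown here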
Target sequence (Q9HCT0 whole entry, looked up): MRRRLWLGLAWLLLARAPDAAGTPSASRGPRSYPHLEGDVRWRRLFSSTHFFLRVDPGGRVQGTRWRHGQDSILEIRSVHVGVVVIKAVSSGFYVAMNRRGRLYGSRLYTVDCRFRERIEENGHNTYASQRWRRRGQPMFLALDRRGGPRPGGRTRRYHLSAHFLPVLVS
HNF4A DNA FP: change in binding of human HNF4A to DNA, primary screen, biochemical, fluorescence polarization, FITC-DNA | Hepatocyte nuclear factor 4-alpha (Homo sapiens), P41235 | 1 h | activity change, % at 10 µM | 360,000 tested, 0.3% active | AID 1224865, 2016; in the data active = activity change above about 30%, passing the limit was not always enough;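 also: controls were the assay level and a saturating level of protein; the project sought stronger binding though the title names inhibitors; some compounds called inactive have numbers as strong as hits; positive values seem to mean higher polarization but the record does not say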
RanGTP-Impb inh: inhibitors of RanGTP-importin-beta interaction, primary screen, biochemical, FRET, CFP-Ran, YFP-importin-beta, homogeneous; Ran GTPase (GTP-bound) - importin-beta complex; cell-free CFP-Ran/YFP-importin-beta FRET ratio; inhibition, % (test concentration not listed); 300,000 tested, 1.1% active; AID 2216, 2009;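 active = most replicates above 15%; inconclusive = exactly half above 15%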;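 also: 0% = DMSO wells and 100% = Ran loaded with GDP instead of GTP; wells of about 40 µL received 100 nL stock; the first replicate is given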
MLL AF4-AF9 inh: inhibitors of AF4 peptide binding to AF9, primary screen, biochemical, AlphaScreen, biotin-AF4 peptide, FLAG-AF9, single point; Protein AF-9 (Homo sapiens), P42568; inhibition, % at 10 µM; 350,000 tested, 0.47% active; AID 651704, 2012;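 active = every replicate reaching a set inhibition limit, whatever the replicate mean, cut at about 25% in these data; inconclusive = mean inhibition reaches that limit but some replicates miss it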;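 also: 0% = plate neutral control median and 100% = total signal loss; the record names both 10 and 1 µM as test concentration; the first replicate is given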
Target sequence (P42568 whole entry, looked up): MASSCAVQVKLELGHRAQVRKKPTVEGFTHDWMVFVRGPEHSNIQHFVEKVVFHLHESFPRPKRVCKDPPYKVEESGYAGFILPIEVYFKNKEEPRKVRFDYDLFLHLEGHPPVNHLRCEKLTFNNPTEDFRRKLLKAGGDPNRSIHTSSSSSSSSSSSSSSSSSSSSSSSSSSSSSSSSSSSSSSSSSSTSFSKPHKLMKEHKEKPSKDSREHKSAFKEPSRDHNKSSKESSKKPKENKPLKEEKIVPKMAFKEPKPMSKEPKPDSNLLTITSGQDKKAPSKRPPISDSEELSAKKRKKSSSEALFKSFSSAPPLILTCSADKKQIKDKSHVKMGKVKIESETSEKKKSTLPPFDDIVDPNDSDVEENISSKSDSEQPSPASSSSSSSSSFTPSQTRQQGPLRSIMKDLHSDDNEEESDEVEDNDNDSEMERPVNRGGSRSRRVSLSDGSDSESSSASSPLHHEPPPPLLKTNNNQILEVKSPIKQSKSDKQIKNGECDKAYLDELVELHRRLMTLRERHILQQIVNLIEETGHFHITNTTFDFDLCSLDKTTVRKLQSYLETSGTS
Numbers without * were called inactive; i = inactive; ? = inconclusive; · = not tested or not shown; & = joins results of further samples.

Below each SMILES: E coli growth | Vif A3G | UCH37 inh | FGF22 binding | HNF4A DNA FP | RanGTP-Impb inh | MLL AF4-AF9 inh
CC(=O)NC(CC(=O)O)C(=O)O (centres undefined)
 : 0.68&0.63 | · | 1.7 | · | -2.5 | 3.4 | ·
O=C1CSC(=NC(=O)c2ccccc2)N1
 : 0.68 | 14% | 3.1 | i | -2.5 | -0.5 | 7.7
CCN1C(=O)/C(=C2\SC(N3CCOCC3)=NC2=O)c2ccccc21
 : 0.69 | -11% | 5.4 | i | 0.9 | -0.3 | 2.7
Nc1nnc(SCC(=O)Nc2cc(F)ccc2F)s1
 : 0.68 | 7% | 3.1 | i | -2.0 | 1.4 | -8.5
O=C(CNC(=O)c1ccc(S(=O)(=O)N2CCCC2)cc1)N/N=C/c1ccco1
 : · | -2% | · | i | 2.4 | -2.2 | -4.6
COCc1ccc(C(=O)N2CCc3c([nH]c4ccccc34)C2c2ccccn2)s1 (centres undefined)
 : 0.66 | -4% | 2.4 | i | -7.4 | 0.2 | 6.5
C[C@H](NC(=O)OC(C)(C)C)c1nnc(SCC(N)=O)o1
 : 0.73 | -2% | 3.4 | · | 2.9 | 1.0 | ·
COc1cc2c(cc1/C=C1/NC(=O)N(CC(=O)Nc3ccccc3)C1=O)OCO2
 : 0.73 | 0% | -16 | i | 2.9 | 7.1 | -0.6
CC(C)N(C(=O)COC(=O)c1ccccc1C(=O)c1ccc(Cl)c([N+](=O)[O-])c1)C(C)C
 : 0.65 | 9% | 0.1 | i | 3.1 | 2.5 | 12
CCOCC(=O)Nc1ccc(S(=O)(=O)Nc2ncccn2)cc1
 : 0.63 | 4% | 2.6 | · | -2.8 | 0.9 | ·
COc1ccc(C(=O)OCC(=O)c2c[nH]c3ccccc23)cc1OC
 : 0.67 | · | 6.3 | i | 4.1 | · | -0.4
O=[N+]([O-])c1ccc(-c2cc(-c3ccncc3)nc3ccc4ccccc4c23)cc1
 : 0.71 | 20% | 2.0 | i | -3.6 | · | -0.5
CCc1ccccc1NC(=O)/C(C#N)=C/c1ccc(Sc2ccccc2)o1
 : 0.7 | · | -1.8 | i | 3.5 | 14 | -0.9
CSc1nc(SCC(=O)NCc2ccco2)c2c3c(sc2n1)COC(C)(C)C3
 : 0.73 | -6% | -36 | · | -3.5 | 4.7 | ·
O=C(CSc1ncn[nH]1)Nc1c(F)cc(F)cc1Br
 : 0.64 | -2% | 3.3 | · | -0.9 | 2.5 | ·
CCOC(=O)C(C)Sc1nnc(-c2ccccc2O)n1-c1ccc(C)cc1 (centres undefined)
 : 0.67 | 0% | 1.5 | · | -0.4 | 1.5 | ·
CCOC(=O)c1c(C)[nH]c(C(=O)C(C)Cl)c1C (centres undefined)
 : 0.63 | 6% | 4.6 | i | -0.2 | 1.7 | 2.0
O=Cc1c(Nc2ccccc2Cl)nc2ccccn2c1=O
 : 0.68 | · | 2.7 | i | 0.4 | -0.6 | -3.0
CC1(NC(=O)Cc2ccc(Cl)c(Cl)c2)CCS(=O)(=O)C1 (centres undefined)
 : 0.69 | 0% | -0.9 | i | 5.8 | · | 1.4
O=C(CN1CCN(C(=O)c2ccccc2)CC1)Nc1cc(S(=O)(=O)N2CCCC2)ccc1Cl
 : 0.72 | -24% | 2.6 | i | 0.0 | · | 2.9
O=C(O)c1cccc(Sc2ccc(Br)cc2C(=O)O)c1
 : 0.72 | · | 2.2 | i | 0.2 | · | -3.1
COc1ccc(-n2nc(C(=O)NCC(=O)NCc3ccccc3OC)c3ccccc3c2=O)c(OC)c1
 : 0.7 | 3% | 0.3 | i | 4.2 | 3.3 | -9.5
Cc1ccc(S(=O)(=O)N2CCC(C(=O)Nc3cc(C(F)(F)F)ccc3N3CCOCC3)CC2)cc1C
 : 0.65 | -7% | 3.9 | · | -0.8 | -6.0 | 0.4
O=C(Cn1cnc2c(cnn2-c2ccccc2Cl)c1=O)N1CCc2ccccc21
 : 0.71 | 0% | 1.5 | · | 0.9 | 3.2 | ·
COc1ccc(NC(=O)Cn2c([N+](=O)[O-])cnc2C)c(OC)c1
 : · | -6% | · | i | 2.2 | · | -1.7
CS(=O)(=O)N(CC(=O)Nc1cc(Cl)ccc1Cl)c1ccccc1Cl
 : 0.67 | 0% | 4.9 | · | -0.3 | 1.2 | ·
CCOC(=O)c1ccc2ncc(C(=O)OCC)c(Nc3ccc(N4CCOCC4)cc3)c2c1
 : 0.74 | 2% | 5.5 | i | 0.8 | -2.5 | 26*
CC(C)CN(CC(C)C)S(=O)(=O)N1CCC(C(=O)NCCN2CCOCC2)CC1
 : 0.68 | 2% | 4.0 | · | 1.1 | ? | ·
O=S(=O)(Nc1ccc2c(c1)OCO2)c1ccc(Br)s1
 : 0.64 | 27% | 3.6 | · | 3.8 | 2.9 | ·
Cc1cccc(NC(=O)c2cccc(S(=O)(=O)N(C)C3CCCCC3)c2)n1
 : · | -2% | · | i | 1.1 | · | 11

Full records from above:
Results for CC1(NC(=O)Cc2ccc(Cl)c(Cl)c2)CCS(=O)(=O)C1 (centres undefined) = E coli growth = 0.69; Vif A3G = 0%; UCH37 inh = -0.9; FGF22 binding = i; HNF4A DNA FP = 5.8; RanGTP-Impb inh = ·; MLL AF4-AF9 inh = 1.4
Results for O=Cc1c(Nc2ccccc2Cl)nc2ccccn2c1=O = E coli growth = 0.68; Vif A3G = ·; UCH37 inh = 2.7; FGF22 binding = i; HNF4A DNA FP = 0.4; RanGTP-Impb inh = -0.6; MLL AF4-AF9 inh = -3.0

(cont.)
Below each SMILES: E coli growth | Vif A3G | UCH37 inh | FGF22 binding | HNF4A DNA FP | RanGTP-Impb inh | MLL AF4-AF9 inh
Cc1csc(NC(=O)/C=C/c2ccco2)n1
 : 0.67 | · | 15 | · | -1.6 | 2.9 | ·
CCC(C(=O)OCC(=O)N(CCOC)c1c(N)n(Cc2ccccc2)c(=O)[nH]c1=O)c1ccccc1 (centres undefined)
 : 0.7 | 6% | 0.8 | i | -0.2 | -0.4 | -1.1
CCN(CC(=O)Nc1ccc(NC(C)=O)cc1)C(=O)c1cc(S(=O)(=O)N2CCCCCC2)ccc1OC
 : 0.68 | 4% | 3.8 | i | 3.7 | 1.6 | 1.4
FC(F)(F)c1ccccc1Cc1c(-c2cccc(Br)c2)nc2ccc(Cl)cn12
 : · | · | · | i | -4.3 | · | -5.4
Cc1cc(C)c2c(-n3cccc3)c(NC(=O)OC(C)C)sc2n1
 : 0.69 | -3% | 2.8 | · | 0.5 | -0.1 | ·
S=C(Nc1cccc2ccccc12)Nc1cccc2ccccc12
 : 0.75 | -1% | -1.7 | · | 0.2 | · | 7.4
CC(C)c1ccc(CNc2ccc([N+](=O)[O-])cn2)cc1
 : 0.64 | 3% | -0.3 | · | -0.8 | 3.9 | 2.0
O=C1ON=C(c2ccccc2)/C1=C\c1ccco1
 : 0.7 | ? | 2.5 | i | -4.4 | -4.8 | -0.7
CNC(=O)[C@H]1O[C@@H](n2cnc3c(NCc4cccc(I)c4)ncnc32)[C@H](O)[C@@H]1O
 : · | · | -1.8 | i | -0.1 | · | -2.7
COc1cccc(C(=O)Nc2ccc(NC(=O)c3ccco3)nc2)c1
 : 0.66 | -9% | 4.0 | · | -1.5 | 1.7 | ·
CCn1c(C2CC(=O)N(Cc3ccccc3)C2)nc2ccccc21 (centres undefined)
 : 0.8 | 1% | 1.7 | i | 2.0 | -5.6 | 1.6
O=C(NCc1ccccc1)c1ccc(NC(=O)C2CCCO2)cc1 (centres undefined)
 : 0.67 | · | -2.2 | i | -0.8 | 1.8 | -2.6
COc1cccc2c1OCC/C2=N\NC(=O)COc1ccc(C)cc1
 : · | -3% | · | i | 24 | 0.4 | -4.1
CC(=O)Nc1ccc(NC(=O)C(C)Oc2ccc(Cl)cc2Cl)cc1 (centres undefined)
 : 0.66 | -4% | 2.5 | · | 4.3 | -1.1 | -0.9
CCc1cc2cccc(C)c2nc1SCC(=O)c1ccc(NC(C)=O)cc1
 : 0.72 | -33% | 1.3 | · | 3.6 | 1.3 | ·
COc1ccc(-c2nn(-c3ccccc3)cc2/C=N/NS(=O)(=O)c2ccccc2)cc1
 : · | 14% | · | · | 1.1 | -1.5 | ·
COc1ccc(/C=C(/C(=O)c2ccc(Cl)cc2Cl)n2cncn2)cc1
 : 0.66 | 0% | 6.7 | · | -2.3 | 1.5 | ·
c1ccc2c(c1)NC1(CCCCC1)n1c-2nc2ccccc21
 : 0.69 | 0% | i | · | -2.1 | -1.5 | ·
COC(=O)CSc1[nH]c2ccc(F)cc2c1[N+](=O)[O-]
 : 0.64 | 11% | 1.5 | i | -1.9 | 4.9 | ·
COc1ccc(C(=O)C2CCCN(Cc3ccc4nonc4c3)C2)c(C)c1 (centres undefined)
 : 0.7 | 12% | 3.3 | i | -1.2 | -1.8 | 29*
CCC(=O)c1ccc(OCC(=O)OCC(=O)N(C)CC(=O)Nc2ccc(F)cc2)cc1
 : 0.62 | -1% | 1.9 | i | 0.5 | 5.8 | -2.5
O=C(CN1CCOCC1)Nc1cc(Cl)ccc1Cl
 : 0.65 | 2% | 0.7 | · | 6.1 | 1.2 | ·
COCCN1C(=O)N(c2ccc(Cl)cc2)C(=O)C1CC(=O)Nc1cc(OC)cc(OC)c1 (centres undefined)
 : 0.67 | · | 5.2 | i | -1.2 | 1.1 | -0.8
CCOC(=O)c1cccnc1NC(=O)c1ccccc1
 : 0.73 | -8% | 1.0 | i | 3.1 | 0.1 | 0.3
CCC(C)Nc1nc(C)nc2c1oc1ccccc12 (centres undefined)
 : 0.66 | -1% | 1.5 | i | 1.4 | 2.4 | 2.7
O=C1CC(c2ccccc2)=Nc2ccccc2N1
 : 0.63 | ? | 1.8 | i | 3.5 | 5.4 | 3.7
COc1ccc(C(=O)COC(=O)c2ccco2)cc1
 : 0.69 | 1% | 4.2 | · | -0.1 | -3.1 | ·
CN(C)S(=O)(=O)N1CCN(S(=O)(=O)c2ccccc2)CC1
 : 0.68 | 4% | -1.1 | · | -1.5 | ? | ·
CN(C(=O)COC(=O)CSc1ccc([N+](=O)[O-])cc1)C1CCS(=O)(=O)C1 (centres undefined)
 : 0.61 | -2% | 7.2 | i | 0.1 | 0.4 | 1.2
CC(C)N1CCC(N2CCN(Cc3ccc(C#CC(C)(C)O)s3)CC2CCO)CC1 (centres undefined)
 : 0.68 | ? | 1.5 | i | 0.6 | -5.3 | -3.8
N#C/C(=C(/O)c1ccccc1F)c1nc2cc(C(F)(F)F)ccc2s1
 : 0.68 | -1% | 5.6 | i | 15 | -2.7 | -1.4
Cc1nnc(SC(C(=O)Nc2ccc(Cl)c([N+](=O)[O-])c2)c2ccccc2)[nH]c1=O (centres undefined)
 : 0.69 | 8% | 2.1 | i | 5.8 | 2.8 | 5.2
CCc1ccc(-n2c(C)nc3cc(C(=O)NCc4cccnc4)ccc32)cc1
 : 0.69 | 0% | 0.4 | i | 2.9 | 1.9 | 3.8
O=C(CN1C(=O)NC2(CCCc3ccccc32)C1=O)c1ccc(F)cc1 (centres undefined)
 : · | -13% | · | i | 2.0 | · | -5.0

This is a subset, so the mix of outcomes need not match the whole.
